Screening data as filed in PubChem.
GLA inh pH 4.5 – blocks human alpha-galactosidase A at pH 4.5; P06280; purified enzyme, 4-MU-alpha-Gal fluorescence, pH 4.5; activity change, negative = inhibition, % at 105 µM; 230,000 tested, under 10 active; AID 1467; inconclusive = small, poorly fitted or top-dose-only inhibition, or a rising curve; inactive = flat fitted curve, though single readings scatter; no compound was filed as active;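 further: 0% = full activity with enzyme and -100% = basal without enzyme; dose as in the result columns while the protocol names 77 µM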
Rango-impB inh – prevents formation of the Rango-importin beta complex; Q14974; Rango CFP/YFP FRET sensor + importin beta, 45 min; Potency, µM (doses to about 92.2 µM), for the others: top-dose inhibition of complex formation; 0.031% of 340,000 active; AID 540263; active = rising FRET ratio curve, often small or poorly fitted; inconclusive = mostly compound fluorescence or quenching in the first reads; inactive = flat curves in all reads;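 further: potency means the concentration at half of the fitted maximal effect; 0% = DMSO wells and 100% = buffer wells lacking importin beta; nearly all actives have a fitted effect of over 15% in size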
Target sequence (Q14974 whole entry, looked up): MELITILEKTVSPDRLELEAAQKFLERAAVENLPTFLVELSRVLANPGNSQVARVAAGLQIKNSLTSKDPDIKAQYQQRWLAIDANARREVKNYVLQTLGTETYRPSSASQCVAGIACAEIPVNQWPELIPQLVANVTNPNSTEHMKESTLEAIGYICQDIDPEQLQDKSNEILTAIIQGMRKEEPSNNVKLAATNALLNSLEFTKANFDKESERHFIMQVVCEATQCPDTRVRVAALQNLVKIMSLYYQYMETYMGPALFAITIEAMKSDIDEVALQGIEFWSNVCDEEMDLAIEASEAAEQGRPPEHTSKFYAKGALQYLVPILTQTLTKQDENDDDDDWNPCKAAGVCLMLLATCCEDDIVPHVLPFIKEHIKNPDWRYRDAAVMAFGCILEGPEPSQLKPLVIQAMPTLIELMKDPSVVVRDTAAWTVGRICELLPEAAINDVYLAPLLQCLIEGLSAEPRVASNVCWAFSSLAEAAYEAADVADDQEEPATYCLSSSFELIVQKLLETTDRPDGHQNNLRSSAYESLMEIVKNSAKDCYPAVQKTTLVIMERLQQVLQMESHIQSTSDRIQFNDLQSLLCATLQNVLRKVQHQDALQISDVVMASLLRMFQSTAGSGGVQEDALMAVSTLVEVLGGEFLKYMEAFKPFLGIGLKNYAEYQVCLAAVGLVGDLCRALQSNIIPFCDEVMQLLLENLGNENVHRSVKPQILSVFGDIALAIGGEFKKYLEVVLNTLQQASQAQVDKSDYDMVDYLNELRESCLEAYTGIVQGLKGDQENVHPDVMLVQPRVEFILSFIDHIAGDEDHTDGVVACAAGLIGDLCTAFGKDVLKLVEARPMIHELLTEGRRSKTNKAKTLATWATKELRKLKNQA
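FRET biosensor Rango (snurportin 1 IBB between N-terminal EYFP and C-terminal Cerulean), 50 nM in PBS/1 mM DTT/0.02% Tween-20/0.1% BSA, preincubated 5 min RT with compound; 0.125 microM importin beta added, 45 min RT, CFP/YFP FRET ratio read.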
miR-21 reporter – miR-21 reporter, rising signal; HeLa miR-21 FLuc reporter, luciferase, 48 h; Potency, µM (titrated, usually from 38.3 µM), for the others: top-dose reporter change, positive = more light; 340,000 tested, under 10 active; AID 2288; active = well fitted rising curve with a large enough effect; inconclusive = small, poorly fitted or top-dose-only effect; inactive = no such curve, though single readings can be large or run the other way;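 further: % of control where 0% means no effect; miR-21 action dims this reporter so a rising signal means less miR-21 action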
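Using DMEM plus 10% FBS, HeLa miR-21-FLuc cells are incubated with test compounds (final up to about 40uM) for 48 hours; firefly luciferase signal is then imaged following reagent-mediated lysis.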
Rango release inh – inhibitors of RanGTP-induced Rango-importin beta complex dissociation | O95149+P62826 | Biochemical FRET Rango-importin beta, RanGTP-induced dissociation | Potency, µM (doses to about 46.1 µM), without a hit: top-dose activity change, negative = inhibition | 0.071% of 340,000 active; active means falling FRET ratio curve, often poorly fitted, with flat reads before Ran was added; inconclusive means other falling curves, or compound fluorescence or quenching; inactive means flat or rising ratio curve;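 further: potency means the concentration at half of the fitted maximal effect; % of control where 0% means no effect; nearly all actives have a fitted effect of over 45% in size; -100% = wells without RanGTP and RCC1; the record marks most hits as doubtful in a second field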
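FRET read at 45 min, room temperature: inhibitors block the CFP/YFP signal rise when RanGTP (0.6 uM Ran, 2 mM GTP, 0.2 uM RCC1) frees Rango (0.1 uM) from importin beta (0.25 uM). Pre-read after 5 min compound exposure flags interference.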
Starred values were filed as active, the others as inactive; ? = inconclusive; · = no result given; & = joins results of further samples.

| cpd | GLA inh pH 4.5 | Rango release inh | miR-21 reporter | Rango-impB inh | SMILES |
| --- | --- | --- | --- | --- | --- |
| 1 | -7 | -12% | 1% | 0.2% | N#Cc1ccc(COC(=O)Cn2nnc(-c3ccccc3)n2)cc1 |
| 2 | 5 | -15% | 1% | 0.5% | CC(c1nc2ccccc2c(=O)[nH]1)N1CCN(C)CC1 (stereo not drawn) |
| 3 | -2 | -4% | -38% | -0.4% | O=C(N/N=C\c1cn[nH]c1-c1ccccc1)c1cccs1 |
| 4 | · | -1% | · | ? | CN(C)C1=NCCN1CCc1ccccc1 |
| 5 | -11 | -14% | -5% | -0.4% | O=C(O)CCC(=O)Nc1ccc(N2CCCCC2)c(C(=O)O)c1 |
| 6 | · | 13% | 0% | -1.5% | Cc1csc(NC(=O)CN2C(=O)c3ccccc3S2(=O)=O)n1 |
| 7 | 3 | 6% | -11% | -1.1% | COC(=O)c1cccc(NC(=O)/C=C/c2ccc([N+](=O)[O-])cc2)c1 |
| 8 | · | 2% | 0% | ? | O=C(NCCCl)Nc1ccccc1OCCOc1ccccc1NC(=O)NCCCl |
| 9 | · | -15% | -2% | 3.4% | Cc1ccc(S(=O)(=O)NCCn2nc(C)nc2C)cc1 |
| 10 | -4 | 5% | -9% | 4.7% | COc1ccc(-c2noc(CN(C)S(=O)(=O)c3ccc(C)cc3)n2)cc1 |
| 11 | 0 | 10% | 1% | -0.1% | CC(C)Cc1nnc(NC(=O)CCC(=O)Nc2ccc(F)cc2)s1 |
| 12 | · | 0% | · | 0.4% | O=C(NC1CCCC(C(F)(F)F)C1)c1ccc([N+](=O)[O-])o1 (stereo not drawn) |
| 13 | 6 | 5% | 20% | -3.5% | COc1ccccc1OCC(O)Cn1c(=N)n(CCN2CCCCC2)c2ccccc21 (stereo not drawn) |
| 14 | 7 | 6% | -5% | 3.2% | COc1ccc(Cl)cc1C(=O)n1nc(C)cc1C |
| 15 | · | -1% | 0% | 6.7% | CC(C)NC(=O)[C@@H]1CSC2c3ccccc3C(=O)N21 (stereo partly drawn) |
| 16 | · | 0% | · | -0.7% | O=C(NCCOc1ccc(Cl)cc1)c1ccc2c(c1)OCCO2 |
| 17 | -3 | -1% | -2% | -1.0% | CN(CCOC(=O)c1ccco1)Cc1ccccc1 |
| 18 | · | -3% | -9% | 4.7% | O=C(CS(=O)(=O)c1ccccc1)NCc1ccc(Cl)cc1 |
| 19 | · | 20% | 0% | -0.8% | O=S(=O)(NC(=NC1CCCCC1)c1ccccc1F)c1ccccc1 |
| 20 | 3 | 0% | -5% | -0.9% | CN1CCN(C(=O)c2cnn3c(C(F)F)cc(C4CC4)nc23)CC1 |
| 21 | -1 | -18% | -2% | -3.8% | C=CCn1c(SCC(=O)NCc2ccccc2)nnc1C1CCCCC1 |
| 22 | 1 | -10% | 7% | -0.7% | COc1ccc(-n2ncc(C(=O)N3CCN(c4ccc(F)cc4)CC3)c2C)cc1 |
| 23 | -6 | 2% | -10% | -1.1% | CC(Nc1c([N+](=O)[O-])c(=O)oc2ccccc12)c1ccccc1 (stereo not drawn) |
| 24 | -3&-4 | -8% | 17% | -0.1% | CCN1/C(=C/C(C)=O)Sc2ccc(OC)cc21 |
| 25 | 0 | 8% | -1% | 1.2% | C[C@@H](C(=O)N1CCN(C(=O)OC(C)(C)C)CC1)n1cc(CCC(=O)O)nn1 |

Next section
| cpd | GLA inh pH 4.5 | Rango release inh | miR-21 reporter | Rango-impB inh | SMILES |
| --- | --- | --- | --- | --- | --- |
| 26 | -3 | 21% | -1% | 2.5% | COCCNC(=O)c1ccccc1NC(=O)Cc1ccccc1 |
| 27 | -6 | 0% | -8% | 0.4% | Cc1ccc(C)c(OCCOCCN2CCOCC2)c1 |
| 28 | -11 | 0% | 4% | 9.0% | CN=c1scc(-c2c[nH]c3ccccc23)n1C |
| 29 | 7 | 21% | -11% | -1.3% | CN1CCN(c2nnc(-c3ccccc3)c(-c3ccccc3)n2)CC1 |
| 30 | · | 11% | -1% | -1.0% | CC(C)(O)C#Cc1ccc(C(=O)N2CCC(CCC(=O)NC3CC3)CC2)cc1 |
| 31 | · | 18% | · | -0.5% | CC(C)CCN1CCC(Cc2ccccc2)(NC(=O)c2ccccc2)C1=O (stereo not drawn) |
| 32 | · | 0% | -3% | 0.7% | COc1ccc(S(=O)(=O)N(C)CC(=O)N2CCCC2)cc1 |
| 33 | 2 | 3% | -4% | 3.5% | CNS(=O)(=O)c1ccc(NC(=O)c2cncc(Br)c2)cc1 |
| 34 | · | -8% | · | -1.0% | CCc1noc(C)c1C(=O)Nc1nc(-c2cc(OC)ccc2OC)cs1 |
| 35 | 1 | 0% | -2% | 0.9% | C=CCNC(=O)CSc1nnc(-c2ccncc2)n1CCc1ccccc1 |
| 36 | -6 | -10% | -4% | 0.0% | C=CCNC(=O)c1ccccc1Cl |
| 37 | -10 | -6% | -3% | 2.9% | O=C(CSc1n[nH]c(-c2ccncc2)n1)NCCc1ccccc1 |
| 38 | -2 | 4% | 0% | -2.7% | CS(=O)(=O)N1CCC(C(=O)NCc2ccc(F)cc2)CC1 |
| 39 | -10 | 10% | 4% | ? | O=c1c(-c2c(O)cc(O)c3c(=O)cc(-c4ccc(O)cc4)oc23)c(-c2ccc(O)cc2)oc2cc(O)cc(O)c12 |
| 40 | -6 | -11% | -1% | -0.5% | O=C(Nc1nc2ccccc2n1CCN1CCOCC1)c1ccc(Cl)cc1 |
| 41 | · | -14% | · | -1.4% | O=C(Nc1cccc2nsnc12)c1cc2c(cc1Cl)Sc1nccn1S2(=O)=O |
| 42 | · | -2% | -55% | 2.1% | COc1cccc2cc(C(N)=O)/c(=N\NC(=O)c3ccccc3)oc12 |
| 43 | · | 3% | · | -5.1% | Cc1nc(-c2ccc(F)cc2)c(CC(=O)N(C)CC(=O)Nc2ccc(Br)cc2C)s1 |
| 44 | · | 28% | 3% | 8.9% | CCOC(=O)N1CCN(C(=O)CCS(=O)(=O)c2ccc3c(c2)CC(C)N3C(=O)CC)CC1 (stereo not drawn) |
| 45 | · | 14% | · | -0.8% | COc1ccc(C(CNC(=O)c2ccc(NS(=O)(=O)c3ccccc3)cc2)N2CCOCC2)cc1 (stereo not drawn) |
| 46 | · | 0% | -7% | 2.0% | COc1ccc(OC)c(S(=O)(=O)N2CCC(C(=O)NC3CCCCCC3)CC2)c1 |
| 47 | -12 | ? | 2% | ? | Cn1c(-c2ccc(C=O)s2)nc2c3ccccc3c3ccccc3c21 |
| 48 | -5 | 15% | -8% | -3.8% | CC(C)C(=O)NCCc1nc2ccccc2n1C |
| 49 | -9 | -24% | -1% | 0.8% | COC(=O)c1ccc(NC(=O)CN2CCC(NC(=O)c3ccco3)CC2)cc1 |
| 50 | -26 | -1% | -20% | -0.6% | Cc1ccc(S(=O)(=O)Nc2nc(C)c(C(=O)N/N=C/c3ccccc3)s2)cc1 |

Continuation.
| cpd | GLA inh pH 4.5 | Rango release inh | miR-21 reporter | Rango-impB inh | SMILES |
| --- | --- | --- | --- | --- | --- |
| 51 | · | -4% | · | -1.6% | CC(C)(C)OC(=O)C[C@@H]1C/C=C\C[C@H](CC(=O)N(CCO)Cc2ccccc2)C(=O)N[C@H](C(C)(C)C)COC1=O |
| 52 | -6 | 4% | 11% | 0.2% | CC(C)(C)c1cc2cccnc2n1Cc1cccc(F)c1 |
| 53 | 0 | 18% | -29% | -2.6% | O=C(Nc1ccc(F)cc1)c1ccc(CSc2ccccc2)o1 |
| 54 | 0 | 3% | -51% | -1.4% | Cc1ccc(-n2c(C)nn(CCOc3ccccc3)c2=O)cc1 |
| 55 | · | ? | · | ? | COc1ccc(-c2nc3cnccn3c2NC2CCCCC2)cc1-c1cccc(Cl)c1 |
| 56 | · | -6% | 1% | -3.5% | Cc1cccc(C)c1NC(=O)CSc1nc2c([nH]1)c(=O)n(C)c(=O)n2C |
| 57 | 4 | -20% | -4% | 2.8% | Cc1ccc(-c2nc(C)sc2CC(=O)OCC(=O)Nc2cccc([N+](=O)[O-])c2)cc1 |
| 58 | · | -3% | · | -0.5% | Cc1onc(-c2ccccc2Cl)c1C(=O)N(C)CC(=O)Nc1ccc(F)c(F)c1F |
| 59 | 4 | 4% | -37% | -4.0% | N#Cc1c(NC(=O)c2cc([N+](=O)[O-])ccc2N2CCOCC2)sc2c1CCCC2 |
| 60 | -5 | -10% | 5% | 0.3% | O=C(/C=C/c1ccco1)Nc1ccccc1C(=O)Nc1cccc(C(=O)O)c1 |
| 61 | · | 5% | -3% | 1.1% | C=C(C)COc1ccc(-c2ncncc2-c2ccc(Br)cc2)c(O)c1 |
| 62 | 0 | 14% | ? | -1.0% | O=C(Nc1cccc(-c2csc(Nc3ccc(Cl)cc3)n2)c1)c1cc([N+](=O)[O-])cc(C(F)(F)F)c1 |
| 63 | ? | -4% | 9% | 6.2% | Cc1c(C(=O)NCCSCc2c(F)cccc2Cl)cnn1-c1ccc(F)cc1 |
| 64 | -5 | -10% | -21% | -2.9% | CN=C(Nc1ccc(C(=O)OC)s1)c1ccc(Cl)cc1 |
| 65 | 2 | 7% | -1% | -1.5% | CCCC(=O)C1=C(O)C(C(=O)OC)C(C)(C)CC1=NC(C)(C)C (stereo not drawn) |
| 66 | 4 | 28% | -1% | -0.1% | CC1(C)C(N(O)C(=O)Nc2ccc(Cl)cc2)N(c2ccc(Cl)cc2)C(=O)N1CC(=O)NN (stereo not drawn) |
| 67 | · | -8% | 1% | 2.0% | CCc1cc(CNC(=O)C2CCC(=O)N(Cc3cccc(F)c3)C2)on1 (stereo not drawn) |
| 68 | -1 | -2% | -7% | -0.4% | COc1ccccc1CNC(=O)c1csc(Cc2ccc(Cl)cc2)n1 |
| 69 | · | 26% | -1% | 4.3% | O=C(OCC(=O)N1CCCC1)c1cc(Cl)ccc1[N+](=O)[O-] |
| 70 | · | 11% | · | -1.6% | Cc1ccc(C)c(S(=O)(=O)N2CCN(Cc3cc4c(cc3O)OCO4)CC2)c1 |
| 71 | 8 | -5% | 0% | ? | Cc1ccc(C(c2nnnn2CC2CCCO2)N2CCN(Cc3ccccc3)CC2)cc1 (stereo not drawn) |
| 72 | -10 | -8% | -23% | -0.4% | NS(=O)(=O)c1ccc(NC(=O)C2(c3ccccc3)CCCC2)cc1 |

Of the compounds above, 13 contain fluorine:
| cpd | GLA inh pH 4.5 | Rango release inh | miR-21 reporter | Rango-impB inh | SMILES |
| --- | --- | --- | --- | --- | --- |
| 11 | 0 | 10% | 1% | -0.1% | CC(C)Cc1nnc(NC(=O)CCC(=O)Nc2ccc(F)cc2)s1 |
| 12 | · | 0% | · | 0.4% | O=C(NC1CCCC(C(F)(F)F)C1)c1ccc([N+](=O)[O-])o1 (stereo not drawn) |
| 19 | · | 20% | 0% | -0.8% | O=S(=O)(NC(=NC1CCCCC1)c1ccccc1F)c1ccccc1 |
| 20 | 3 | 0% | -5% | -0.9% | CN1CCN(C(=O)c2cnn3c(C(F)F)cc(C4CC4)nc23)CC1 |
| 22 | 1 | -10% | 7% | -0.7% | COc1ccc(-n2ncc(C(=O)N3CCN(c4ccc(F)cc4)CC3)c2C)cc1 |
| 38 | -2 | 4% | 0% | -2.7% | CS(=O)(=O)N1CCC(C(=O)NCc2ccc(F)cc2)CC1 |
| 43 | · | 3% | · | -5.1% | Cc1nc(-c2ccc(F)cc2)c(CC(=O)N(C)CC(=O)Nc2ccc(Br)cc2C)s1 |
| 52 | -6 | 4% | 11% | 0.2% | CC(C)(C)c1cc2cccnc2n1Cc1cccc(F)c1 |
| 53 | 0 | 18% | -29% | -2.6% | O=C(Nc1ccc(F)cc1)c1ccc(CSc2ccccc2)o1 |
| 58 | · | -3% | · | -0.5% | Cc1onc(-c2ccccc2Cl)c1C(=O)N(C)CC(=O)Nc1ccc(F)c(F)c1F |
| 62 | 0 | 14% | ? | -1.0% | O=C(Nc1cccc(-c2csc(Nc3ccc(Cl)cc3)n2)c1)c1cc([N+](=O)[O-])cc(C(F)(F)F)c1 |
| 63 | ? | -4% | 9% | 6.2% | Cc1c(C(=O)NCCSCc2c(F)cccc2Cl)cnn1-c1ccc(F)cc1 |
| 67 | · | -8% | 1% | 2.0% | CCc1cc(CNC(=O)C2CCC(=O)N(Cc3cccc(F)c3)C2)on1 (stereo not drawn) |

This is a subset; rates above refer to the full screens.
